TRPML1 agonist: qHTS for Agonists of the Human Mucolipin Transient Receptor Potential 1 (TRPML1); Mucolipin-1 (Homo sapiens), Q9GZU1; TRPML1-expressing cells, Ca2+ dye fluorescence, FDSS; host cell line not named in the record; reference of the full effect not given here; activation, % (concentration not given with the values); actives 0.12% (n = 410,000); in the data active = activation above about 50%; inconclusive = about 30% to 50%; inactive = below about 30%; further: 0% is about no effect; the text of the record puts the active cut at 80%
Target sequence (Q9GZU1 whole entry, looked up): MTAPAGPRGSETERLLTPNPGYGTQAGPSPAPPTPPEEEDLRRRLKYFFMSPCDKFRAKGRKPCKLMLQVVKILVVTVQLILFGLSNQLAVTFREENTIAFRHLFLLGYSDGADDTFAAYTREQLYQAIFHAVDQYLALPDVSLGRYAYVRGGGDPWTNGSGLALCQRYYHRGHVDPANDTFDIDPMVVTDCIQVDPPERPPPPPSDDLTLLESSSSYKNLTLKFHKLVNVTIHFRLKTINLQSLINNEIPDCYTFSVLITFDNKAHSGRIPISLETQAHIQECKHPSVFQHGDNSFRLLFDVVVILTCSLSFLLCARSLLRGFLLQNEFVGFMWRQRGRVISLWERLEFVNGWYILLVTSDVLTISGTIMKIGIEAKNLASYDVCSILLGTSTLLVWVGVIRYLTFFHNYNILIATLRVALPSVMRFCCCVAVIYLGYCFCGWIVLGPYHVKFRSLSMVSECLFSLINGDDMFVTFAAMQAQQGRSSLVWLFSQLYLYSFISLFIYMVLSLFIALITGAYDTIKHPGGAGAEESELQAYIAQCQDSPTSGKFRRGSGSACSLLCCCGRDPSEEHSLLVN
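TRPML1-DL cells, Tet-induced overnight (~16 h, 37 degrees C), loaded 45-90 min at room temperature with Ca8 no-wash calcium dye plus quencher. FDSS fluorescence: 10 s baseline, compound pin-transfer, 110 s agonist read, then EC80 54-4 (4uM final) and 110 s antagonist read.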
gsp ag: qHTS for Agonist of gsp, the Etiologic Mutation Responsible for Fibrous Dysplasia/McCune-Albright Syndrome: qHTS. actives 0.13% (n = 340,000). Potency, µM (highest dose often 76.9 µM), for inactives: at the highest dose activation (cAMP increase), actives largely listed as activators. gsp mutant cells, cAMP HTRF, 30 min; control for the full effect not named in the record. AID 624287, 2012; active = well fitted activation curve with a large enough effect; inconclusive = small, poorly fitted or top-dose-only effect, or another doubt; inactive = no such curve, though single readings can be large or run the other way; cell line not stated here;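 further: phosphodiesterase inhibitor Ro 20-1724 added with compounds to block cAMP breakdown; potency means the concentration at half of the fitted maximal effect; nearly all actives have a fitted effect of over 60% in size; about a fifth of the inactives were tested at one dose only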
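Cells in DMEM/10% FBS with G418 were pretreated with compounds in DMSO plus […] (300 uM stock) for 30 min at 37C. cAMP was measured by HTRF (cAMP-d2 plus anti-cAMP antibody-K) after 30 min at room temperature.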
gsp antag: qHTS for Antagonists of gsp, the Etiologic Mutation Responsible for Fibrous Dysplasia/McCune-Albright Syndrome: qHTS. actives 0.4% (n = 340,000). AID 624288, 2012. gsp-mutant cells, cAMP HTRF, 30 min; control for the full effect not named in the record. Potency, µM (doses to about 76.9 µM), without a hit: at the top dose activity change, negative = inhibition, most hits filed as inhibitors; active = falling curve of any shape with a large fitted effect; inconclusive = falling curve, mostly with a smaller effect; inactive = flat or rising curve; cell line not stated here;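 further: intracellular cAMP measured with PDE inhibitor Ro 20-1724 present during compound exposure; potency means the concentration at half of the fitted maximal effect; on the % scale 0 is the no-effect control and ±100 the full control effect; nearly all actives have a fitted effect of over 65% in size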
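HTRF cAMP measurement after 30 min RT detection following 30 min, 37C compound treatment alongside […] (added as 300 uM solution) in G418-selected cells seeded at 2000/well and grown 16–24 h.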
TRPML1 blocker: qHTS for Inhibitors of the Human Mucolipin Transient Receptor Potential 1 (TRPML1). TRPML1-inducible cells, Ca2+ dye fluorescence, FDSS; stronger effect = lower value; inhibition of EC80 agonist-evoked calcium signal. activity change, negative = inhibition, % (no concentration beside the values). Mucolipin-1 (Homo sapiens), Q9GZU1. actives 0.02% (n = 390,000); in the data active means activity change below about -50%; inconclusive means about -30% to -50%; inactive means above about -30%;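 further: stimulus is agonist 54-4 at its EC80 concentration; on the % scale 0 is the no-effect control and ±100 the full control effect; compound concentration not given in the record; the text of the record puts the active cut at -80%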
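TRPML1-DL cells, Tet-induced overnight (~16 h, 37 °C) at 1,500 cells/well, were loaded with Ca8 no-wash dye plus quencher for 45-90 min at room temperature. Compounds were pinned during FDSS kinetic reading; agonist 54-4 at EC80 (4 uM final) then added.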
Menin MLL FP FL: qHTS Assay for Inhibitors Targeting the Menin-MLL Interaction in MLL Related Leukemias: Competition With Fluorescein Labeled MLL-derived Peptide | Fluorescence polarization, fluorescein-MLL peptide displacement from menin | FP activity change, % at 61.4 µM | 290,000 tested, under 10 active | AID 1766, 2009; inconclusive = falling polarisation curve, or a change in total fluorescence; inactive = total fluorescence flat and polarisation flat or rising; no compound was filed as active; the % refers to the polarisation; negative = inhibition;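 further: % of control where 0% means no effect; inhibitors lower the polarisation; unlabelled MLL peptide was the positive control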
ClpP mod: qHTS Assay for Activators of ClpP; AID 651965, 2013; Potency, µM (top dose mostly 57.5 µM), for inactives: top-dose activity change, negative = active; actives 1.9% (n = 340,000); ATP-dependent Clp protease proteolytic subunit (Bacillus subtilis (strain 168)), P80244; purified B. subtilis ClpP, FRET peptide cleavage, 20 min; active = well fitted falling curve with a large enough effect; inconclusive = small, poorly fitted or top-dose-only effect; inactive = no such curve, though single readings can be large or run the other way; further: potency means the concentration at half of the fitted maximal effect; the source files actives as falling curves though it sought activators and does not explain the sign; nearly all actives have a fitted effect of over 65% in size; many hits overshoot -100%
Target sequence (P80244 whole entry, looked up): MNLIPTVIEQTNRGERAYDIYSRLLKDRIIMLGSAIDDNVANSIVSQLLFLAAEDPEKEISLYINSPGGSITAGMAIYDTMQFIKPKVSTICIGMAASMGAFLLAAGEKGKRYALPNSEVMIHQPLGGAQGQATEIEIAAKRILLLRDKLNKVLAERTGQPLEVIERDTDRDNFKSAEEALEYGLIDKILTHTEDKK
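Buffer: 100 mM Tris/HCl pH8, 100 mM KCl, 0.05% low protease BSA, 2.5% glycerol, 0.01% Tween-20. ClpP 10 microg/mL final; 20 min RT; delta FRET normalized to ADEP and DMSO controls.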
Numbers without * were called inactive; ? = inconclusive; nt = no result given; [ ] = another dose, or the depositor's remark.

Second line of a record – ClpP mod	TRPML1 agonist	gsp antag	Menin MLL FP FL	TRPML1 blocker	gsp ag
CCC(O)c1cnc(OCc2ccccc2)nc1OCc1ccccc1 (configuration not stated)
  0.1%	0.3	nt	nt	-5	-2%
O=C(OCC(=O)N(C1CCCCC1)C1CCCCC1)c1ccccc1O
  ?	10	-15%	-3.4	-17	1%
Cc1cccc(C(=O)NC2CCN(CC(=O)Nc3ccccc3Cl)CC2)c1
  0.8%	0.7	-4%	2.2	11	-10%[15.4 µM]
CCc1ccc(C(=O)Nc2ccc3nn(-c4ccc(C)c(Cl)c4)nc3c2)cc1
  0.0%	1.7	nt	nt	-25	nt
CCOc1ccc(S(=O)(=O)Nc2cccc(C(=O)NCC(c3ccccc3)N(C)C)c2)cc1 (configuration not stated)
  0.3%	3.5	-1%	nt	-20	-2%[15.4 µM]
COC(=O)[C@]1(Cc2ccccc2)N[C@H](CN(C)C(=O)c2ccc(C(C)(C)C)cc2)[C@@H]2C(=O)N(Cc3ccccc3)C(=O)[C@@H]21
  1.9%	0.8	-15%	nt	56	nt
CCOC(=O)N1N=C(CC)CC1(O)C(F)(F)F (configuration not stated)
  0.6%	-0.8	8%	9.6	0	-29%
CC(C)c1ccc(NC(=O)NCc2ccc(F)cc2)cc1
  -0.9%	0.9	?	2.7	-8	-2%
Cc1c(NC(=O)CN2C(=O)c3cccc4cccc2c34)c(=O)n(-c2ccccc2)n1C
  -2.4%	-0.8	4%	0.1	4	?
Cc1noc(C)c1CSCC(=O)Nc1cccc(C(F)(F)F)c1
  1.6%	1.4	2%	nt	1	24%
Cc1ccc(NS(=O)(=O)c2c(C)[nH]c(C)c2C(=O)N2CCCCC2)cc1Cl
  -0.1%	-0.3	7%	-0.7	-2	17%
CCCn1c(SCC(=O)C(C)(C)C)nc2ccccc21
  nt	-0.5	9%	-1.9	9	?
O=C(c1ccccc1Br)N1CCN(c2ccccc2)CC1
  1.2%	0.0	0%	-1.2	38	-11%
COc1ccc(N2CC(C)Cn3c2nc2c3c(=O)n(Cc3ccc(C)cc3)c(=O)n2C)c(OC)c1 (configuration not stated)
  nt	1.2	?	-0.5	52	33%
Cc1ccc(NC(=O)Cn2cc(C(=O)C3CCCCC3)c3ccccc32)c(C)c1
  -3.4%	0.1	nt	nt	-6	nt
Cc1cc(C)cc(OCC(=O)O/N=C(\N)c2ccccc2Cl)c1
  -0.3%	3.1	6%	-0.9	-2	0%
CCN(CC)C(=O)c1cc2cc(Br)ccc2oc1=O
  -3.6%	0.3	5%	-0.5	5	1%
COC(=O)c1cccc(-n2[nH]nnc2=S)c1
  2.5%	0.4	-10%	4.5	-1	-43%[inhibitor]
Cc1cccc(-n2c(O)c(C=NCc3ccccn3)c3ccccc3c2=O)c1
  -4.1%	2.2	0%	nt	8	-6%
COc1ccc(C2CCCN2C(=O)Nc2ccc(F)cc2)cc1OC (configuration not stated)
  1.1%	-0.6	-3%	4.0	-6	13%
Cc1cc(NC(=O)CCc2ccc(S(=O)(=O)N3CCOCC3)cc2)n(-c2ccccc2)n1
  -0.9%	1.5	-11%	0.0	41	4%
CN1C(=O)CSC1=Nc1ccc(F)cc1
  2.9%	0.1	1%	0.5	-4	-13%[15.4 µM]
COc1ccc(-n2c(=S)[nH]c3cc(C(=O)N4CCN(c5ccccc5)CC4)ccc3c2=O)cc1
  nt	-0.6	-5%	2.9	-5	-17%
Cc1ccc(NC(=O)CN(C)C(=O)CSc2nccn2C)cc1
  nt	-0.4	4%	nt	5	?
CN(c1ccccc1)S(=O)(=O)c1cccc(NC(=O)CSc2ncc(C(F)(F)F)cc2Cl)c1
  -2.7%	2.0	-8%	1.2	15	4%
CN(C)c1ccc(NC(=O)C[n+]2ccccc2)cc1
  -1.4%	0.5	?	-0.1	6	-14%
CCC(C)[C@@H](C(=O)N1CCNCC1)n1cc(CCCCN)nn1 (some centres not stated)
  -0.7%	-0.8	15%	-3.1	-4	-2%
CCc1ccc2c(c1)c1nnc(NN)nc1n2CC
  13%	1.5	20%	3.2	12	-11%
Cc1ccc(-n2c(-c3ccncc3)n[nH]c2=S)cc1
  nt	0.3	-6%	5.3	-9	-3%
N#Cc1ccc(Oc2cccnc2)cc1C#N
  -0.4%	-0.3	8%	3.3	26	-2%
Cc1ccc(N=CC2=C(O)CC(c3ccco3)CC2=O)cc1 (configuration not stated)
  -3.6%	1.0	0%	-0.6	-5	-72%[inhibitor]
COc1cc(C2C(C(=O)c3ccco3)=C(O)C(=O)N2c2cc(C)on2)cc(Br)c1O (configuration not stated)
  0.7%	0.7	-9%	3.4	22	36%
COc1ccc(-c2nnc(-c3ccccc3)o2)cc1OC
  4.1%	-0.5	-6%	-0.6	-19	5%
COc1ccc(NC(=O)Cn2c(=O)oc3cc(S(=O)(=O)NC4CCCC4)ccc32)cc1OC
  -3.6%	0.8	nt	nt	6	nt
COc1cccc(S(=O)(=O)N(C)C[C@@H]2OCc3cn(nn3)CCCC(=O)N([C@H](C)CO)C[C@H]2C)c1
  -3.8%	0.6	nt	nt	-18	-9%
CCCCCCC(=O)NNC(=O)c1c(O)c2ccccc2n(CC)c1=O
  nt	1.2	1%	0.9	-14	21%
COc1ccc(N2CCN(C(=O)c3cc4c(=O)oc5ccc(C)cc5c4s3)CC2)cc1
  -1.7%	-0.2	nt	nt	-20	nt
CCc1ccc(N2C(=O)c3sc4nnc(C)c(=O)n4c3C2=O)cc1
  2.0%	-0.3	7%	4.7	-4	-7%
Nc1cccc(S(=O)(=O)c2cccc(N)c2)c1
  0.3%	0.1	3%	0.2	1	-7%
CSc1cccc(NC(=O)Nc2ccc(Cl)cc2)c1
  -0.8%	0.5	-11%	-0.7	27	-5%
O=C(CSc1ncnc2ccccc12)NC1CCS(=O)(=O)C1 (configuration not stated)
  -0.3%	-0.2	5%	nt	-12	?
CCCCC1(C)NC(=O)N(CC(=O)Nc2cc(S(=O)(=O)N3CCOCC3)ccc2Cl)C1=O (configuration not stated)
  -5.0%	-0.1	-5%	nt	-5	-1%
CCSc1nc(C2CC2)cc(-c2ccco2)c1C#N
  -23%	-0.3	-10%	0.9	-14	-28%
Cc1cc(C)c2c(C)c(C(=O)NCc3ccc(S(N)(=O)=O)cc3)oc2c1
  nt	1.5	-17%	-0.4	-16	?
CCOc1ccccc1NC(=O)N1CCC(c2nc3ccccc3[nH]2)CC1
  -0.5%	0.5	5%	2.3	18	-34%[inhibitor]
CN(C)CCCNc1c2c(nc3ccccc13)CCC2
  -2.2%	0.9	-6%	-5.5	-3	-3%
COc1cc(/C=C2\SC(=S)N(Nc3ccccc3)C2=O)ccc1O
  28µM*	16	-2%	?	-8	-4%[15.4 µM]
COCCN(C(=O)c1ccc(C)c(S(=O)(=O)N2CCOCC2)c1)c1c(N)n(CC(C)C)c(=O)[nH]c1=O
  -4.8%	0.1	4%	nt	-17	8%
CC(=O)c1ccc(Nc2ncnc3ccc(Br)cc23)cc1
  -13%	-0.1	nt	nt	25	?
CC(C)C(=O)Nc1nnc(S(=O)(=O)N(C)Cc2ccc(F)cc2)s1
  -1.3%	1.2	nt	nt	5	nt
CCc1ccc(NC(=S)N(Cc2ccccc2)Cc2ccccn2)cc1
  -0.3%	-0.3	-17%	-0.6	22	-45%[inhibitor]
CCN1C(=O)[C@@H]2[C@@H](c3ccc(-c4ccc(F)cc4)cc3)N3CCC[C@@]3(C(=O)OC)[C@@H]2C1=O
  -0.7%	-0.7	-2%	nt	-2	-30%
Cc1cc(C)c2nc(Nc3nc(-c4ccccc4)cc(=O)[nH]3)nc(C)c2c1
  -1.4%	nt	-12%	2.3	nt	?
CN1CCN(C(=O)CCNC(=O)Cn2cnc3ccccc3c2=O)CC1
  -12%	-0.3	14%	6.5	13	-1%[15.4 µM]
Nc1nc(Nc2ccccc2)nc2c1ncn2[C@@H]1O[C@H](CO)[C@@H](O)[C@H]1O
  -0.3%	-0.7	-7%	nt	7	nt
Cc1ccc(C)c(Cn2c(=O)n(C)c(=O)c3sccc32)c1
  -0.5%	1.7	-4%	-1.7	6	1%[15.4 µM]
COc1ccc(NC(=O)N(C)C[C@@H]2Oc3cc(C#CCN(C)C)ccc3S(=O)(=O)N([C@H](C)CO)C[C@H]2C)cc1
  -2.2%	-0.1	nt	nt	-12	-24%
C1CCC(n2nnnc2CN2CCCC2)CC1
  4.8%	-0.5	9%	1.7	0	-10%
O=C(Nc1ccnn1C1CCN(C/C=C/c2ccc(F)cc2)CC1)C1CCCC1
  -4.7%	0.0	5%	-2.3	-8	27%
COc1cc(/C=C(\C#N)C(=O)NCCc2ccccc2)cc(OC)c1O
  1.1%	?	-21%	?	-1	28%

Full records from above:
COc1ccc(NC(=O)N(C)C[C@@H]2Oc3cc(C#CCN(C)C)ccc3S(=O)(=O)N([C@H](C)CO)C[C@H]2C)cc1 is listed with ClpP mod: -2.2%; TRPML1 agonist: -0.1; gsp antag: nt; Menin MLL FP FL: nt; TRPML1 blocker: -12; gsp ag: -24%
CCN1C(=O)[C@@H]2[C@@H](c3ccc(-c4ccc(F)cc4)cc3)N3CCC[C@@]3(C(=O)OC)[C@@H]2C1=O is listed with ClpP mod: -0.7%; TRPML1 agonist: -0.7; gsp antag: -2%; Menin MLL FP FL: nt; TRPML1 blocker: -2; gsp ag: -30%

(listing goes on)
Second line of a record – ClpP mod	TRPML1 agonist	gsp antag	Menin MLL FP FL	TRPML1 blocker	gsp ag
CCC(=O)N1c2ccccc2NC2=C(C(=O)CCC2)C1c1ccccc1 (configuration not stated)
  -4.8%	0.6	-2%	-0.2	5	0%
COc1ccc(CN(Cc2ccco2)C(=O)COc2ccccc2Cl)cc1
  -1.1%	2.1	nt	nt	-16	nt
C[C@H](CO)N1C[C@H](C)[C@@H](CN(C)C(=O)Nc2ccccc2)Oc2ccc(NC(=O)Nc3ccc(C(F)(F)F)cc3)cc2C1=O
  -1.1%	-0.1	-1%	nt	26	2%
CC1(C)CC(=O)C(C=Nc2cc(C(=O)c3ccccc3)ccc2N)=C(O)C1
  nt	4.4	-10%	?	5	6%
Cc1ccc(Cn2c(N)c(S(=O)(=O)c3cccs3)c3nc4ccccc4nc32)cc1
  3.2µM*	0.3	9%	17	12	?
